# Screening results: PubChem, Broad Institute
# A1 apoptosis 2 – blocks A1, raising caspase activity. caspase activation, % (test concentration not listed). MEF A1-2A-BIM cells, caspase-Glo luminescence, 3 h; percent of clofoctol response, DMSO zero. AID 2465. 24,000 tested, under 10 active; in the data active = caspase activation above about 5.9%;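 note: wells of about 30 µL received 50 nL stock; the first replicate is given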
#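 Material: mouse embryonic fibroblasts co-expressing A1 and BIM (A1-2A-BIM), primed for A1 dependence / Quantity: 2500 cells/well / Buffer or medium: RPMI-1640 growth medium with 10% FBS / Doses: 50 nL compound per well, pinned / Schedule: 3 h compound exposure at 37 °C / Signal: Caspase-Glo luminescence (DEVD substrate) / Measure: Caspase-3/7 activation, seen as rise in luminescence signal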
# Numbers without * were called inactive.
SMILES,A1 apoptosis 2
C[C@@H]1CN([C@H](C)CO)C(=O)Cc2cc(NS(=O)(=O)c3ccc(Cl)cc3)ccc2O[C@H]1CN(C)C(=O)NC1CCCCC1,-1.3
CNC[C@@H]1Oc2ccc(N(C)C)cc2CC(=O)N([C@@H](C)CO)C[C@@H]1C,-0.2
COc1ccc(COCC23Oc4ccccc4[C@H]([C@H]2CO)n2c(c4c(c(C(C)=O)c2=O)C(=O)N(C)C4=O)N3C)cc1,0.2
C[C@@H]1CN([C@@H](C)CO)C(=O)c2cc(NC(=O)CCC(F)(F)F)ccc2O[C@H]1CN(C)C(=O)Nc1ccc(F)cc1,0.6
C[C@@H]1CCCCO[C@H](CN(C)C(=O)Cc2ccccc2)[C@H](C)CN([C@H](C)CO)C(=O)c2cc(NC(=O)Nc3ccccc3)ccc2O1,-0.8
Cc1noc(C)c1NC(=O)N(C)C[C@H]1Oc2c(NS(=O)(=O)c3cn(C)cn3)cccc2C(=O)N([C@H](C)CO)C[C@@H]1C,0.5
C[C@@H]1CN([C@@H](C)CO)C(=O)c2cccc(NC(=O)C3CC3)c2O[C@@H]1CN(C)C(=O)Nc1cccc2ccccc12,1.0
Cc1noc(C)c1S(=O)(=O)Nc1ccc2c(c1)C(=O)N([C@H](C)CO)C[C@@H](C)[C@@H](CN(C)C(=O)NC1CCCCC1)O2,-2.3
C[C@H](CO)N1C[C@H](C)[C@@H](CN(C)C)Oc2ccc(NS(C)(=O)=O)cc2C1=O,0.6
C[C@@H]1CCCCO[C@@H](CN(C)C)[C@H](C)CN([C@@H](C)CO)C(=O)c2cc(NC(=O)NC3CCCCC3)ccc2O1,0.9
C[C@@H]1CCCCO[C@@H](CN(C)C(=O)Nc2ccccc2)[C@H](C)CN([C@@H](C)CO)C(=O)c2cc(NC(=O)c3ccncc3)ccc2O1,0.1
CC(C)NC(=O)Nc1ccc2c(c1)C(=O)N([C@@H](C)CO)C[C@@H](C)[C@H](CN(C)CC1CCCCC1)OCCCC[C@H](C)O2,0.2
COc1ccc(CN(C)C[C@H]2Oc3ccc(NS(=O)(=O)c4cn(C)cn4)cc3C(=O)N([C@@H](C)CO)C[C@H]2C)cc1,0.3
COc1ccc(S(=O)(=O)Nc2ccc3c(c2)C(=O)N([C@@H](C)CO)C[C@H](C)[C@@H](CN(C)S(=O)(=O)c2ccc(C)cc2)O3)cc1,-1.5
C[C@H]1CN([C@@H](C)CO)C(=O)c2cccc(NC(=O)C3CCCCC3)c2O[C@H]1CN(C)S(C)(=O)=O,0.7

# Next part; the last 6 above are carried over.
SMILES,A1 apoptosis 2
C[C@@H]1CCCCO[C@@H](CN(C)C)[C@H](C)CN([C@@H](C)CO)C(=O)c2cc(NC(=O)NC3CCCCC3)ccc2O1,0.9
C[C@@H]1CCCCO[C@@H](CN(C)C(=O)Nc2ccccc2)[C@H](C)CN([C@@H](C)CO)C(=O)c2cc(NC(=O)c3ccncc3)ccc2O1,0.1
CC(C)NC(=O)Nc1ccc2c(c1)C(=O)N([C@@H](C)CO)C[C@@H](C)[C@H](CN(C)CC1CCCCC1)OCCCC[C@H](C)O2,0.2
COc1ccc(CN(C)C[C@H]2Oc3ccc(NS(=O)(=O)c4cn(C)cn4)cc3C(=O)N([C@@H](C)CO)C[C@H]2C)cc1,0.3
COc1ccc(S(=O)(=O)Nc2ccc3c(c2)C(=O)N([C@@H](C)CO)C[C@H](C)[C@@H](CN(C)S(=O)(=O)c2ccc(C)cc2)O3)cc1,-1.5
C[C@H]1CN([C@@H](C)CO)C(=O)c2cccc(NC(=O)C3CCCCC3)c2O[C@H]1CN(C)S(C)(=O)=O,0.7
C[C@H]1CN([C@@H](C)CO)C(=O)c2cccc(NS(=O)(=O)c3ccc(Cl)cc3)c2O[C@@H]1CN(C)CC1CC1,-0.5
Cc1ccc(S(=O)(=O)N(C)C[C@H]2OCCCC[C@@H](C)Oc3ccc(NC(=O)Nc4ccccc4)cc3C(=O)N([C@@H](C)CO)C[C@H]2C)cc1,0.2
Cc1noc(C)c1NC(=O)N(C)C[C@H]1OCCCC[C@@H](C)Oc2ccc(NS(C)(=O)=O)cc2C(=O)N([C@@H](C)CO)C[C@H]1C,0.1
C[C@H]1CN([C@@H](C)CO)C(=O)Cc2cc(NS(=O)(=O)c3cccs3)ccc2O[C@H]1CN(C)C(=O)Nc1cccc2ccccc12,1.4
COc1ccc(NC(=O)Nc2ccc3c(c2)CC(=O)N([C@H](C)CO)C[C@H](C)[C@@H](CN(C)C(=O)Nc2ccc4c(c2)OCO4)O3)cc1,0.3
Cc1cc(C(=O)Nc2cccc3c2O[C@@H](CN(C)C(=O)Nc2cccc4ccccc24)[C@H](C)CN([C@@H](C)CO)C3=O)n(C)n1,-0.5
C[C@@H]1CCCCO[C@@H](CN(C)Cc2ccc(C(=O)O)cc2)[C@H](C)CN([C@H](C)CO)C(=O)c2cc(NC(=O)CCC(F)(F)F)ccc2O1,-0.5
CNC[C@H]1Oc2ccc(NC(=O)Nc3ccc4c(c3)OCO4)cc2CC(=O)N([C@H](C)CO)C[C@@H]1C,0.5
C[C@@H]1CCCCO[C@@H](CN(C)S(=O)(=O)c2cn(C)cn2)[C@@H](C)CN([C@@H](C)CO)C(=O)c2cc(NS(=O)(=O)c3ccccc3)ccc2O1,-0.6
COc1ccc(S(=O)(=O)N(C)C[C@H]2Oc3ccc(NC(=O)CCCN(C)C)cc3CC(=O)N([C@@H](C)CO)C[C@H]2C)cc1,0.7
C[C@H](CO)N1C[C@H](C)[C@@H](CN(C)Cc2ccc(Cl)c(Cl)c2)Oc2c(NC(=O)NC3CCCCC3)cccc2C1=O,-0.3
COc1ccc(NC(=O)N(C)C[C@H]2Oc3c(NC(=O)c4nc5ccccc5s4)cccc3C(=O)N([C@H](C)CO)C[C@H]2C)cc1,-0.9
C[C@H]1CN([C@@H](C)CO)C(=O)CCCn2nncc2CO[C@H]1CN(C)C(=O)Cc1ccccc1,0.9
C[C@H]1CN([C@@H](C)CO)C(=O)c2cc(NS(=O)(=O)c3ccc(F)cc3)ccc2O[C@@H]1CN(C)Cc1ccncc1,-0.7
C[C@H]1CN([C@@H](C)CO)C(=O)c2cc(NC(=O)Nc3cccc4ccccc34)ccc2O[C@H]1CN(C)C(=O)Nc1ccc(F)cc1,0.0

# Next part (two carried over from the part before).
SMILES,A1 apoptosis 2
C[C@H]1CN([C@@H](C)CO)C(=O)c2cc(NS(=O)(=O)c3ccc(F)cc3)ccc2O[C@@H]1CN(C)Cc1ccncc1,-0.7
C[C@H]1CN([C@@H](C)CO)C(=O)c2cc(NC(=O)Nc3cccc4ccccc34)ccc2O[C@H]1CN(C)C(=O)Nc1ccc(F)cc1,0.0
C[C@@H]1CN([C@H](C)CO)C(=O)c2cccc(NC(=O)c3ccncc3)c2O[C@H]1CN(C)C(=O)NC1CCCCC1,0.0
CN1C(=O)C2C(C1=O)C1C=C(CCCO)C2C(c2ccc(CN3CCCC3)cc2)N1Cc1sc2ccccc2c1Cl (stereo unspecified),0.6
COc1ccc(NC(=O)Nc2ccc3c(c2)C(=O)N([C@@H](C)CO)C[C@@H](C)[C@@H](CN(C)C(=O)Nc2ccc(F)cc2)O3)cc1,-0.6
COc1ccc(S(=O)(=O)N(C)C[C@H]2Oc3ccc(NC(=O)CCCCCC(=O)Nc4ccccc4N)cc3CC(=O)N([C@@H](C)CO)C[C@@H]2C)cc1,1.3
C[C@@H]1CN([C@@H](C)CO)C(=O)c2cc(NC(=O)Nc3ccc(F)cc3)ccc2O[C@@H]1CN(C)Cc1ccc(Cl)c(Cl)c1,0.0
C[C@H](CO)N1C[C@H](C)[C@@H](CN(C)CC2CCCCC2)OCCCC[C@H](C)Oc2ccc(NS(=O)(=O)c3ccccc3)cc2C1=O,0.9
C[C@@H]1CN([C@H](C)CO)C(=O)Cc2cc(NC(=O)Nc3cccc4ccccc34)ccc2O[C@@H]1CN(C)Cc1ccc(C(=O)Nc2ccccc2N)cc1,-1.4
CN1CCN(C(=O)C2=C[C@@H](c3csc4ccccc34)C[C@@H](OCCCCO)O2)CC1,-0.3
CNC[C@@H]1Oc2ccc(NS(=O)(=O)c3ccc(Cl)cc3)cc2C(=O)N([C@@H](C)CO)C[C@@H]1C,-0.5
C[C@H](CO)N1C[C@H](C)[C@@H](CN(C)Cc2ccc(-c3ccccc3)cc2)Oc2ccc(NC(=O)c3ccncc3)cc2C1=O,0.6
C[C@H](CO)N1C[C@H](C)[C@@H](CN(C)Cc2ccc(C(=O)O)cc2)Oc2c(NC(=O)Nc3cccc4ccccc34)cccc2C1=O,1.2
C[C@@H]1CN([C@@H](C)CO)C(=O)Cc2cc(NC(=O)Cn3cnnn3)ccc2O[C@@H]1CN(C)S(C)(=O)=O,-0.8
Cc1ccc(S(=O)(=O)N(C)C[C@@H]2OCCCC[C@H](C)Oc3ccc(NS(=O)(=O)c4ccc(Cl)cc4)cc3C(=O)N([C@@H](C)CO)C[C@H]2C)cc1,-0.3
CCCN(C)C[C@H]1OCCCC[C@H](C)Oc2ccc(NC(=O)Cc3ccccc3)cc2C(=O)N([C@@H](C)CO)C[C@H]1C,-1.1
C[C@@H]1CN([C@H](C)CO)C(=O)c2cccc(NC(=O)Nc3cccc4ccccc34)c2O[C@@H]1CN(C)S(=O)(=O)c1cccs1,0.3
CNC[C@H]1OCCCC[C@H](C)Oc2ccc(NS(=O)(=O)c3cccs3)cc2C(=O)N([C@@H](C)CO)C[C@H]1C,1.2
CC(C)NC(=O)N(C)C[C@H]1Oc2c(NC(=O)c3ccc(-c4nccs4)cc3)cccc2C(=O)N([C@@H](C)CO)C[C@@H]1C,0.9
C[C@@H]1CCCCO[C@@H](CN(C)C(=O)Nc2ccc(F)cc2)[C@@H](C)CN([C@H](C)CO)C(=O)c2cc(NC(=O)C3CCCCC3)ccc2O1,-0.2
C[C@@H]1CCCCO[C@H](CN(C)Cc2ccncc2)[C@H](C)CN([C@H](C)CO)C(=O)c2cc(NC(=O)c3ccncc3)ccc2O1,0.8
C[C@@H]1CCCCO[C@H](CN(C)S(=O)(=O)c2cccs2)[C@H](C)CN([C@@H](C)CO)C(=O)c2cc(NC(=O)Cc3ccccc3)ccc2O1,-1.6
C[C@@H]1CN([C@@H](C)CO)C(=O)c2cc(NC(=O)Nc3ccc(F)cc3)ccc2O[C@@H]1CN(C)Cc1ccc(-c2ccccc2)cc1,0.9
C[C@H]1CN([C@@H](C)CO)C(=O)c2cc(NC(=O)Cn3cnnn3)ccc2O[C@@H]1CN(C)Cc1ccncc1,0.4
C[C@@H]1CN([C@H](C)CO)C(=O)c2cccc(NC(=O)C3CCOCC3)c2O[C@H]1CN(C)Cc1ccc(C(=O)O)cc1,0.4
C[C@@H]1CN([C@@H](C)CO)C(=O)c2cccc(NS(=O)(=O)c3ccc(F)cc3)c2O[C@H]1CN(C)C(=O)Nc1cccc2ccccc12,1.4
Cc1noc(C)c1NC(=O)Nc1ccc2c(c1)C(=O)N([C@@H](C)CO)C[C@H](C)[C@@H](CN(C)Cc1ccc(C(=O)O)cc1)OCCCC[C@H](C)O2,0.0
COc1ccc(NC(=O)Nc2ccc3c(c2)C(=O)N([C@@H](C)CO)C[C@H](C)[C@@H](CN(C)C(=O)Nc2ccc4c(c2)OCO4)O3)cc1,0.1
C[C@@H]1CN([C@@H](C)CO)C(=O)c2cccc(NS(C)(=O)=O)c2O[C@H]1CN(C)Cc1ccc(C(F)(F)F)cc1,-0.7
C[C@H](CO)N1C[C@H](C)[C@H](CN(C)S(=O)(=O)c2ccccc2C#N)OCc2cnnn2CCCC1=O,0.3
COc1ccc(CN(C)C[C@@H]2OCCCC[C@@H](C)Oc3ccc(NC(=O)c4ccncc4)cc3C(=O)N([C@H](C)CO)C[C@H]2C)cc1,0.3
CNC[C@H]1Oc2ccc(NC(=O)CCN3CCOCC3)cc2CC(=O)N([C@@H](C)CO)C[C@@H]1C,0.9
C[C@@H]1CCCCO[C@@H](CN(C)S(=O)(=O)c2ccccc2)[C@H](C)CN([C@H](C)CO)C(=O)c2cc(NC(=O)Nc3ccccc3)ccc2O1,-0.4
CC(C)NC(=O)Nc1ccc2c(c1)C(=O)N([C@H](C)CO)C[C@H](C)[C@@H](CN(C)Cc1ccc(C(=O)O)cc1)O2,-0.5
COc1cc2c(cc1O)C(c1cccs1)N(Cc1sc3ccccc3c1Cl)CC2 (stereo unspecified),-1.4
C[C@H]1CN([C@@H](C)CO)C(=O)c2cccc(NC(=O)Nc3ccc4c(c3)OCO4)c2O[C@H]1CN(C)C(=O)Nc1cccc2ccccc12,0.4
C[C@@H]1CN([C@@H](C)CO)C(=O)c2cccc(NC(=O)Nc3ccc(F)cc3)c2O[C@H]1CN(C)Cc1ccc(C(=O)O)cc1,-0.1
C[C@@H]1CN([C@@H](C)CO)C(=O)Cc2cc(NS(C)(=O)=O)ccc2O[C@H]1CN(C)C(=O)NC1CCCCC1,-1.6
O=C(O)CCCCCC(=O)NN=C1CCCCCCC1,0.0
C[C@H]1CCCCO[C@@H](CN(C)C)[C@@H](C)CN([C@@H](C)CO)C(=O)c2cc(NC(=O)Nc3ccccc3)ccc2O1,0.2
C[C@@H]1CN([C@@H](C)CO)C(=O)c2cc(N(C)C)ccc2O[C@@H]1CN(C)C(=O)Nc1ccc2c(c1)OCO2,-1.0
C[C@@H]1CCCCO[C@@H](CN(C)S(=O)(=O)c2ccc(Cl)cc2)[C@H](C)CN([C@H](C)CO)C(=O)c2cc(NC(=O)Cc3ccccc3)ccc2O1,-1.1
C[C@H](CO)N1C[C@H](C)[C@H](CN(C)S(=O)(=O)c2ccc(Cl)cc2)Oc2c(NC(=O)CCCCCC(=O)Nc3ccccc3N)cccc2C1=O,1.0

# This is a subset, so the mix of outcomes need not match the whole.
